# Source: PubChem BioAssay
# D2 PAM – human D2 receptor positive allosteric modulation; DiscoveRx D2 beta-arrestin cells, luminescence, 90 min; 100% = 57 uM dopamine signal; P14416; AID 624464; actives 0.23% (n = 360,000); potentiation, % (test concentration not listed); active = potentiation of 50% or more; inconclusive = 30% to 50%; inactive = 30% or less;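 also: compound concentration not given in the record; tested on top of an EC20 dose of dopamine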
#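 D2 cells co-treated with compound plus 50 nM dopamine (EC20) for 90 min at 37 deg C to detect potentiation. Beta-arrestin recruitment was read as enzyme-fragment luminescence after 1 h at ambient temperature. Full response was set by 57 uM dopamine.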
# CtBP-E1A inh – CtBP/E1A binding inhibition | AlphaScreen GST-E1A/His-CtBP binding, 1536-well; hits give low values; control for the full effect not named in the record | activity change, % (test concentration not listed) | actives 0.49% (n = 340,000); in the data active means activity change below about -65%; inconclusive means about -30% to -65%; inactive means above about -30%; also: % is scaled to controls: 0 for no effect and ±100 for the full control effect; compound concentration not given in the record
#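 Homogeneous bead-based format: GST-tagged E1A captured on glutathione donor beads, His-tagged CtBP on nickel acceptor beads; compounds precede bead addition by 2 h at 37 °C.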
# gsp antagonist – gsp mutant antagonism; gsp-mutant cells, cAMP HTRF, 30 min; control for the full effect not named in the record; Potency, µM (titrated, usually from 76.9 µM), for the others: at the highest dose activity change, negative = inhibition, actives largely listed as inhibitors; actives 0.4% (n = 340,000); active = falling curve of any shape with a large fitted effect; inconclusive = falling curve, mostly with a smaller effect; inactive = flat or rising curve; cell line not stated here;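 also: intracellular cAMP measured with PDE inhibitor Ro 20-1724 present during compound exposure; potency is read from the fitted curve at half-maximal effect; % is scaled to controls: 0 for no effect and ±100 for the full control effect; nearly all actives have a fitted effect of over 65% in size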
#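 G418-selected cells were plated in DMEM/10% FBS for 16-24 h at 37C, then treated with compounds plus the PDE inhibitor […] (300 uM solution added) for 30 min at 37C. Intracellular cAMP was measured by HTRF after 30 min lysis at room temperature.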
# Six1-Eya2 inh – Six1/Eya2 interaction inhibition; Q15475+O00167; AlphaScreen GST-Six1/His-Eya2 binding, biochemical; hits give low values; control for the full effect not named in the record; activity change, % (no concentration beside the values); actives 0.56% (n = 360,000); AID 651725; in the data active = activity change below about -65%; inconclusive = about -30% to -65%; inactive = above about -30%; also: % is scaled to controls: 0 for no effect and ±100 for the full control effect; compound concentration not given in the record
# Target sequence (O00167 whole entry, looked up): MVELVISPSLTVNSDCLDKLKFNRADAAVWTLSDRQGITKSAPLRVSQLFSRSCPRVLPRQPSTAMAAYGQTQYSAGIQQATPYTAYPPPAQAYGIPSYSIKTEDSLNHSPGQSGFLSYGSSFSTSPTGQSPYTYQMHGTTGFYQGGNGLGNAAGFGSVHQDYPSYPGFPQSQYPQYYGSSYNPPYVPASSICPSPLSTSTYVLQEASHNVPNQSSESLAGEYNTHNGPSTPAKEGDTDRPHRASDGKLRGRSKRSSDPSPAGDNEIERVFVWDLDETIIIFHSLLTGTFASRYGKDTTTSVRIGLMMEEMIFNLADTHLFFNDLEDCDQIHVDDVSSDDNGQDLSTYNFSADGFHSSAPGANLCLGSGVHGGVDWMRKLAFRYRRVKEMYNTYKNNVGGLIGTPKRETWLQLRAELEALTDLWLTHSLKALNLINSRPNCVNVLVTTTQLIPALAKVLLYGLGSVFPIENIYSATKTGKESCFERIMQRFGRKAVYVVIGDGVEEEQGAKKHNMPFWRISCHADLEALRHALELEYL
# Target sequence (Q15475 whole entry, looked up): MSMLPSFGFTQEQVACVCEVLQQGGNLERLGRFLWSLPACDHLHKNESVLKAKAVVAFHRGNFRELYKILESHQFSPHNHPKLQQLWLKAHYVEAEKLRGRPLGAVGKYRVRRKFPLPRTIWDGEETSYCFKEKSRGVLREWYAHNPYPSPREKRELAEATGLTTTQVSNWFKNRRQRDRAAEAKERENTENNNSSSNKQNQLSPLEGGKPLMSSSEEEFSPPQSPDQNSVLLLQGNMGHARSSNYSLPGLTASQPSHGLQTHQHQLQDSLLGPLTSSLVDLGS
#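 Homogeneous AlphaScreen proximity assay pairing GST-Six1 with His-tagged Eya2 (added as 5X mix: 250 nM and 500 nM) in 50 mM Tris pH 8.0, 300 mM NaCl, 1 mM TCEP. Glutathione donor and nickel acceptor beads; 1 h, 37 °C, dark.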
# gsp ag – activates gsp, the McCune-Albright syndrome mutation; gsp mutant cells, cAMP HTRF, 30 min; control for the full effect not named in the record; Potency, µM (highest dose often 76.9 µM), for inactives: at the highest dose activation (cAMP increase), hits mostly activators; actives 0.13% (n = 340,000); AID 624287; active = well fitted activation curve with a large enough effect; inconclusive = small, poorly fitted or top-dose-only effect, or another doubt; inactive = no such curve, though single readings can be large or run the other way; cell line not stated here;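 also: phosphodiesterase inhibitor Ro 20-1724 added with compounds to block cAMP breakdown; potency is read from the fitted curve at half-maximal effect; nearly all actives have a fitted effect of over 60% in size; about a fifth of the inactives were tested at one dose only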
#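 Cells in DMEM/10% FBS with G418 were pretreated with compounds in DMSO plus […] (300 uM stock) for 30 min at 37C. cAMP was measured by HTRF (cAMP-d2 plus anti-cAMP antibody-K) after 30 min at room temperature.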
# D2 ag – human D2 receptor agonism in beta-arrestin assay; actives 0.084% (n = 360,000); P14416; DiscoveRx PathHunter D2 beta-arrestin, luminescence, 90 min; 100% = 57 uM dopamine signal; AID 624465; activation, % (concentration not given with the values); in the data active = activation above about 40%; inconclusive = about 15% to 40%; inactive = below about 15%; also: compound concentration not given in the record; the text of the record calls up to 30% inactive
#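 Agonist mode: compounds alone added to overnight-plated D2 PathHunter cells for 90 min at 37 C, with 57 uM final dopamine (EC100) defining full response. Beta-arrestin recruitment detected by chemiluminescent reagent, read after 1 h at ambient temperature.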
# Starred values were filed as active, the others as inactive; ? = inconclusive; / = no result given; [ ] = another dose, or the depositor's remark.
# The opening three compounds as a preview:
nr	compound	D2 PAM	CtBP-E1A inh	gsp antagonist	Six1-Eya2 inh	gsp ag	D2 ag
1	CCOc1ccc(NC(=O)C2CCC(CNc3c(N4CCCCC4)c(=O)c3=O)CC2)cc1 (configuration not stated)	-10	-5	3%	7	-27%	0.5
2	CCC(C)c1ccc(NC(=S)NCc2ccccn2)cc1 (configuration not stated)	-30	-16	/	2	-8%[15.4 µM]	3.5
3	Cc1cccc(C)c1NC(=O)CN(C)C(=O)c1ccc(-c2cccc(C(F)(F)F)c2)o1	8	0	0%	6	-7%[15.4 µM]	-1.8

# Results, from the start:
nr	compound	D2 PAM	CtBP-E1A inh	gsp antagonist	Six1-Eya2 inh	gsp ag	D2 ag
1	CCOc1ccc(NC(=O)C2CCC(CNc3c(N4CCCCC4)c(=O)c3=O)CC2)cc1 (configuration not stated)	-10	-5	3%	7	-27%	0.5
2	CCC(C)c1ccc(NC(=S)NCc2ccccn2)cc1 (configuration not stated)	-30	-16	/	2	-8%[15.4 µM]	3.5
3	Cc1cccc(C)c1NC(=O)CN(C)C(=O)c1ccc(-c2cccc(C(F)(F)F)c2)o1	8	0	0%	6	-7%[15.4 µM]	-1.8
4	COC(=O)c1cc(Cl)c(NC(=O)c2cc3ccccc3o2)cc1OC	-11	-1	3%	-3	-21%	-0.5
5	NNC(=O)c1[nH]c2ccc(Br)cc2c1-c1ccccc1	1	-4	1%	-22	14%[15.4 µM]	1.4
6	CNC(=O)CN1C(=O)CSc2ncccc21	-4	3	7%	-2	-12%	-0.1
7	CCOc1ccc(N2CC(C(=O)Nc3ccccc3OC)CC2=O)cc1 (configuration not stated)	-5	0	2%	3	-27%	-4.7
8	O=C(CNC(=O)c1ccccc1F)OCC(=O)N1CCCCC1	0	6	-2%	13	-39%[inhibitor]	-0.4
9	Cc1ccc(NC(=O)CSc2nnc(C3CC3)n2CC2CCCO2)c(C)c1 (configuration not stated)	-5	4	10%	3	?	-0.7
10	COc1ccc(COC(=O)N/N=C(\C)CC(=O)Nc2ccc(Cl)cn2)cc1	-5	7	4%	3	-20%[15.4 µM]	-1.8
11	CCOc1ccc(N(CC(=O)NCCOc2ccc(C)cc2)S(=O)(=O)c2ccccc2)cc1	-10	-1	-8%	0	10%[15.4 µM]	-4.3
12	CCc1ccc(C(=O)COC(=O)C(CCSC)NC(=O)c2ccccc2)cc1 (configuration not stated)	-9	/	-5%	0	39%	-3.6
13	CCOc1ccccc1C1CC(c2ccc(Br)cc2)Nc2nc(N)nn21 (configuration not stated)	-5	-1	2%	-10	-15%	-3.2
14	Cc1cc(C)nc(N2CCC(C(=O)NCCc3ccccc3)CC2)n1	2	2	3%	3	7%	-7.1
15	Cc1cc(Oc2ccccc2)nc(-c2ccccc2)n1	-12	9	5%	30	28%	0.1
16	COc1cccc(C(=O)Nc2ccc3c(c2)n(C)c(=O)n3C)c1	-37	1	-9%	?	7%[15.4 µM]	-3.6
17	O=C(CN1C(=O)C(=O)N(Cc2ccco2)C1=O)Nc1ccc(F)c(F)c1F	0	23	-27%	9	17%	-2.1
18	C1=CC(c2cc3ccccc3o2)OC(CCc2ccccc2)C1 (configuration not stated)	4	60	-7%	47	/	-2.6
19	CCC(=O)c1ccc(N2CCN(C(=O)c3ccccc3F)CC2)c(F)c1	-2	3	-25%	10	17%[15.4 µM]	-4.6
20	CCCCn1c(SCC(=O)NCc2cccs2)nc2c1c(=O)n(C)c(=O)n2C	0	2	-7%	0	13%	-0.8
21	CCOC(=O)C1CCCN(C(=O)c2ccc(OC(C)=O)cc2)C1 (configuration not stated)	-1	10	10%	-3	9%	-1.7
22	CCOc1ccccc1NC(=O)COC(=O)c1c(CC)noc1C	-11	6	-3%	30	-11%[15.4 µM]	-4.2
23	Cc1ccccc1OCC(=O)OCC(=O)NC1CCCC1	-5	-1	/	-6	-51%	-1.2
24	CCOC(=O)C1=C(C)NC(=O)NC1c1ccc(-c2ccccc2F)o1 (configuration not stated)	-7	3	-10%	-5	24%[15.4 µM]	-1.9

25) CCOC(=O)CSc1nc(N2CCOCC2)c2c(c1C#N)CC(C)(C)N(C)C2
26) CNC(=O)c1ccc(-c2cc(C(F)(F)F)nn2C)s1
27) Cc1cccc(OCC(=O)NC(Cc2c[nH]c3ccccc23)C(=O)O)c1C (configuration not stated)
28) Cc1ccc(-c2cc(C(=O)N3CCc4ccccc4C3)no2)cc1
29) CN(C)S(=O)(=O)c1cccc(C(=O)OCC(=O)NC2CCCc3ccccc32)c1 (configuration not stated)
30) CC(CS(=O)(=O)c1ccc2c(c1)NC(=O)CS2)C(=O)NCc1ccccc1Cl (configuration not stated)
31) C=C(C)COc1ccc2c(C)c(CCC(=O)NC3CC3)c(=O)oc2c1
32) COc1ccc(NC(=O)CSc2nnc(C)n2C2CC2)cc1S(=O)(=O)N1CCOCC1

assay / entry,25,26,27,28,29,30,31,32
D2 PAM,-19,1,-3,0,-7,-7,-5,3
CtBP-E1A inh,9,/,-6,3,10,-5,9,/
gsp antagonist,-9%,-3%,6%,-12%,-19%,0%,?,6%
Six1-Eya2 inh,4,1,-7,26,8,?,-1,4
gsp ag,?,-10%,-26%,-11%,7%[15.4 µM],-57%[inhibitor],-10%,?
D2 ag,1.1,-1.2,0.7,0.7,-6.5,-1.9,-0.7,-0.6

33) COc1cccc(C(=O)COC(=O)c2ccc(NC(=O)c3ccccc3)cc2)c1
34) O=C(CSc1ccc2nnc(-c3cccnc3)n2n1)N1CCOCC1
35) COC(=O)c1cc(-c2ccc3c(c2)OCO3)nc2ccccc12
36) Cc1ccc(NC(=O)C/C(N)=N/O)cc1C
37) CS(=O)(=O)Nn1cnc2ccccc2c1=O
38) CCOC(=O)n1c(=O)[nH]c2ccc(Br)cc21
39) CCN(CC)S(=O)(=O)c1ccc(N2CCOCC2)c(NCC(=O)Nc2ccc(F)cc2)c1
40) COc1ccc(S(=O)(=O)N2CCOCC2)cc1NC(=O)[C@@H]1CCCN1C(=O)c1cccs1

assay / entry,33,34,35,36,37,38,39,40
D2 PAM,17,-5,-23,-4,-3,-5,-1,1
CtBP-E1A inh,-2,-2,30,0,8,-17,0,-1
gsp antagonist,-7%,19%,?,11%,1%,-18%,/,1%
Six1-Eya2 inh,6,0,41,0,12,-16,-2,-1
gsp ag,-15%,?,-20%,?,11%,-1%,4%[15.4 µM],0%[15.4 µM]
D2 ag,7.2,-0.3,-6.4,-2.9,2.3,-0.9,0.0,0.8

41) COc1ccc(C)cc1NC(=O)CSc1nnc(-c2ccc(C)cc2)o1
42) CCOC(=O)C1=C(N)OC2=C(C(=O)CC(C)(C)C2)C1c1ccccc1OC (configuration not stated)
43) Cc1c(C(=O)Nn2cnnc2)oc2ccccc12
44) CCOC(=O)CCN(Cc1ccccc1)S(=O)(=O)c1csc(C(N)=O)c1
45) Cc1ccc(C)c(C(=O)CN2C(=O)NC3(CCCCCCC3)C2=O)c1
46) N#CC1CC(c2ccccc2)=NN1c1ccccc1[N+](=O)[O-] (configuration not stated)
47) CCc1nc2sccc2c(=O)n1N
48) O=C(Oc1nsnc1N1CCOCC1)N1CCOCC1

assay / entry,41,42,43,44,45,46,47,48
D2 PAM,-9,-3,-7,-3,-5,7,-13,-6
CtBP-E1A inh,6,-8,4,/,1,?,0,11
gsp antagonist,-18%,-5%,4%,-2%,4%,3%,/,-11%
Six1-Eya2 inh,1,-1,1,10,1,-15,1,4
gsp ag,-20%,25%,8%,-10%,16%,11%,5%[15.4 µM],-2%
D2 ag,-2.0,-1.5,-1.0,-2.8,-4.7,3.5,-0.3,-3.6

49) COc1ccc(C(=O)N2c3ccccc3CC2C)cc1OC (configuration not stated)
50) O=C(C1CC1)N1c2ccccc2Sc2ccccc21
51) CCC12CN(C(=O)c3ccco3)CC(CC)(CN(C(=O)c3ccco3)C1)C2=O
52) O=c1[nH]c(C2CCCCC2)nc2ccccc12
53) COc1cc(OC)cc(C(=O)N2CCN(S(=O)(=O)c3ccc(Cl)s3)CC2)c1
54) Cc1ccc(S(=O)(=O)N2CCN(C(=O)N3CCOCC3)CC2)c(C)c1
55) CCCCCC(=O)NNC1CC(=O)N(c2ccccc2)C1=O (configuration not stated)
56) CN(C(=O)CSc1nnc(-c2cccnc2)n1-c1ccccc1F)C1CCS(=O)(=O)C1 (configuration not stated)

assay / entry,49,50,51,52,53,54,55,56
D2 PAM,-1,-9,-4,-14,-5,-1,-4,-8
CtBP-E1A inh,-4,4,-4,4,-2,3,6,8
gsp antagonist,7%,-17%,9%,27%,23%,-3%,14%,3%
Six1-Eya2 inh,-1,5,22,5,-8,1,7,1
gsp ag,?,-13%,6%,-1%,7%,-11%,-4%,-1%[15.4 µM]
D2 ag,-1.9,-3.6,-1.7,-1.0,3.1,-1.0,0.3,-1.6

# 6 compounds drawn at random from those above, as already listed:
53) COc1cc(OC)cc(C(=O)N2CCN(S(=O)(=O)c3ccc(Cl)s3)CC2)c1
56) CN(C(=O)CSc1nnc(-c2cccnc2)n1-c1ccccc1F)C1CCS(=O)(=O)C1 (configuration not stated)
52) O=c1[nH]c(C2CCCCC2)nc2ccccc12
55) CCCCCC(=O)NNC1CC(=O)N(c2ccccc2)C1=O (configuration not stated)
54) Cc1ccc(S(=O)(=O)N2CCN(C(=O)N3CCOCC3)CC2)c(C)c1
51) CCC12CN(C(=O)c3ccco3)CC(CC)(CN(C(=O)c3ccco3)C1)C2=O

assay / entry,53,56,52,55,54,51
D2 PAM,-5,-8,-14,-4,-1,-4
CtBP-E1A inh,-2,8,4,6,3,-4
gsp antagonist,23%,3%,27%,14%,-3%,9%
Six1-Eya2 inh,-8,1,5,7,1,22
gsp ag,7%,-1%[15.4 µM],-1%,-4%,-11%,6%
D2 ag,3.1,-1.6,-1.0,0.3,-1.0,-1.7

# Following part.
57) CCOC(=O)C1=CCN(S(=O)(=O)c2ccc(Br)cc2)C1c1ccccc1 (configuration not stated)
58) Cc1ccc2ncnc(Nc3cccc([N+](=O)[O-])c3)c2c1
59) COc1ccccc1NC(=S)N1CCC(c2nc3cc(C)c(C)cc3[nH]2)CC1
60) CO/N=C\C(=N\Nc1ccc(OC)cc1)C(=O)c1ccccc1
61) CCOC(=O)CCNC(C)C1COc2ccccc2O1 (configuration not stated)
62) CCn1c(-c2cc(OC)ccc2OC)csc1=Nc1c(C)n(C)n(-c2ccccc2)c1=O
63) NC(=O)NC(c1ccccc1)c1cccc2ccccc12 (configuration not stated)
64) Cc1nc(-c2ccccc2)nc(-c2ccccc2)n1
65) CCOC(=O)c1ccc(S(=O)(=O)N(CCO)Cc2cc3cc(OC)c(OC)cc3[nH]c2=O)cc1

assay / entry,57,58,59,60,61,62,63,64,65
D2 PAM,-4,-7,-23,-8,-16,0,0,-23,1
CtBP-E1A inh,11,-1,9,-17,-2,3,4,-3,5
gsp antagonist,/,-21%,-15%,-7%,15%,-5%,-3%,0%,-10%
Six1-Eya2 inh,20,-3,1,-14,8,2,5,20,1
gsp ag,/,45%,11%,-6%,13%,1%,-28%,/,0%[15.4 µM]
D2 ag,-2.6,4.3,1.3,-4.1,-2.0,15,-0.8,-3.4,-1.7
